Screens from PubChem.
VACV mCherry inh = qHTS for Stage-Specific Inhibitors of Vaccinia Orthopoxvirus: mCherry Reporter Primary qHTS; Vaccinia virus mCherry reporter infection, fluorescence; about a quarter of the inactives have no number; Potency, µM (top dose mostly 36.5 µM), for the others: top-dose activity change, negative = inhibition, actives largely listed as inhibitors; hit rate 0.63% among 310,000; AID 720579, 2013; active = well fitted inhibition curve with a large enough effect; inconclusive = small, poorly fitted or top-dose-only effect; inactive = no such curve, though single readings can be large or run the other way; tested in A549 cells; also: nearly all actives have a fitted effect of over 35% in size; inactives centre near -10
VACV Venus inh = qHTS for Stage-Specific Inhibitors of Vaccinia Orthopoxvirus: Venus Reporter Primary qHTS; hit rate 0.46% among 330,000; Vaccinia virus Venus reporter expression, fluorescence; Potency, µM (titrated, usually from 36.5 µM), without a hit: at the highest dose activity change, negative = inhibition, usual class: inhibitors; active means well fitted inhibition curve with a large enough effect; inconclusive means small, poorly fitted or top-dose-only effect; inactive means no such curve, though single readings can be large or run the other way; tested in A549 cells; also: nearly all actives have a fitted effect of over 30% in size; inactives centre near -10
Active calls of the source: *; i = inactive; ? = inconclusive; / = no result given; & = joins results of further samples; [ ] = another dose, or the depositor's remark. % is scaled to controls: 0 for no effect and ±100 for the full control effect; potency is read from the fitted curve at half-maximal effect.

Values run as follows: VACV mCherry inh, VACV Venus inh
O=C(Cc1ccccc1)c1c[nH]c(C(=O)NCc2ccncc2)c1
→ i, -7%
COc1ccc(-c2nnc(SCc3ccccc3F)o2)cc1OC
→ /, -26%
O=[N+]([O-])c1cccc(S(=O)(=O)N2CCCCC2c2cccnc2)c1 (centres undefined)
→ i, -5%
C/C(=N/NC(=O)c1ccc(Br)o1)c1ccc(C)o1
→ i, -2%
CCOc1ccc(NS(=O)(=O)c2ccc3c(c2)N(C(C)=O)CC3)cc1
→ 1%, -11%
COc1cc(/C=N/NC(=O)c2ccc(O)cc2)ccc1Oc1ccc([N+](=O)[O-])cn1
→ i, -8%
Cc1cc(C(=O)C(=O)Nc2nncs2)c(C)n1-c1ccc(Cl)cc1
→ -18%, -14%
NCC1OC(n2cnc3c(N)ncnc32)CC1O (centres undefined)
→ i, -7%
COc1ccccc1NC(=O)c1sc2ncn(Cc3cccc(C)c3)c(=O)c2c1C
→ -3%, -6%
CCOc1cc(CNCCSc2nnnn2C)ccc1OCc1ccc(Cl)cc1Cl
→ ?, -28%
NS(=O)(=O)c1cccc(NC(=S)NC(=O)C23CC4CC(CC(C4)C2)C3)c1
→ -23%, -18%
CCc1noc(C)c1C(=O)Nc1cc(S(=O)(=O)N2CCCCC2)ccc1N(C)C
→ -17%, -18%
COCCn1c(SCC(=O)Nc2nc3ccccc3s2)nnc1-c1ccoc1C
→ -25%, -20%
COc1ccc(-c2nnc(SCC(=O)Oc3cc(C)ccc3C)o2)cc1
→ i, -18%
CC(C)(C)[C@H](N)C(=O)N[C@H]1CCC2C3CC=C4C[C@@H](O)CC[C@]4(C)C3CC[C@@]21C (some centres undefined)
→ ?, ?
Cc1cc(N)c(-n2cc3c(c2-c2ccc(Br)cc2)c(=O)n(C)c(=O)n3C)cc1C
→ -11%, 4%
CN(C1CCCCC1)S(=O)(=O)CCNC(=O)c1ccccc1
→ -12%, -6%
CN1CCOC(=O)/C1=N/Nc1cc(Cl)ccc1Cl
→ -14%, -2%
Cc1cccc2c(CCNC(=O)c3ccc([N+](=O)[O-])cc3)c[nH]c12
→ -12%, -19%
Cc1nc(N2CCCC2C(=O)O)c2oc3ccccc3c2n1 (centres undefined)
→ /, -4%
CCN(CC)c1ccc(-c2nnc(SCC(=O)N(CCOC)c3c(N)n(CC(C)C)c(=O)[nH]c3=O)o2)cc1
→ 8.9µM*, ?
COCCn1c(=O)[nH]c2cc(C(=O)N3CCN(c4cccc(Cl)c4)CC3)ccc2c1=O
→ -17%, -11%
Nc1ccc2c(c1)oc1ccccc12
→ -5%, -13%
O=C(COC(=O)CNC(=O)c1ccccc1F)Nc1nnc(-c2ccccc2)o1
→ -21%, 5%
CCOCCCn1c(=S)[nH]c2cc(C(=O)N3CCC(C(N)=O)(N4CCCCC4)CC3)ccc2c1=O
→ -18%, -17%
CCOc1cc(/C=N/NC(=O)c2cc(-c3ccccc3)nc3ccccc23)ccc1O
→ ?, -9%
COc1ccc(S(=O)(=O)n2[nH]c(=O)c(CCO)c2C)cc1
→ i, -5%
CC(=O)Oc1ccc2c(C)cc(=O)[nH]c2c1
→ /, -12%
CN1CCCC2(CCCN(Cc3nc(Cc4cccc(C(F)(F)F)c4)no3)C2)C1 (centres undefined)
→ ?, ?
NC(Cc1ccc(Cl)cc1)c1csc(Nc2ccc(C(=O)c3ccccc3)cc2)n1 (centres undefined)
→ ?, ?

Some of the entries above in another layout.
COc1ccc(-c2nnc(SCc3ccccc3F)o2)cc1OC
  VACV mCherry inh: /
  VACV Venus inh: -26%

O=[N+]([O-])c1cccc(S(=O)(=O)N2CCCCC2c2cccnc2)c1 (centres undefined)
  VACV mCherry inh: i
  VACV Venus inh: -5%

C/C(=N/NC(=O)c1ccc(Br)o1)c1ccc(C)o1
  VACV mCherry inh: i
  VACV Venus inh: -2%

CCOc1ccc(NS(=O)(=O)c2ccc3c(c2)N(C(C)=O)CC3)cc1
  VACV mCherry inh: 1%
  VACV Venus inh: -11%

(more compounds)
Values run as follows: VACV mCherry inh, VACV Venus inh
CC(=O)NCc1cn2c(C)csc2n1
→ -4%, 11%
C/C(=N\NC(=O)c1cc(-c2cccc(OC(C)C)c2)nc2ccccc12)c1cccnc1
→ ?, -1%
C=C(C)[C@H]1O[C@H]2CC[C@@]3(C)[C@@](O)(CC[C@H]4[C@@H]5OC(C)(C)[C@H]6C[C@@H]7C(=C)Cc8c(Cl)cc9[nH]c(c5c9c8[C@@]76O)[C@@]43C)[C@]23O[C@@H]3[C@H]1O
→ i, -11%
CCC1CCc2c(n(C)c3ccccc3c2=O)O1 (centres undefined)
→ ?, -27%
CCOCCCN(Cc1ccco1)C(=O)c1cc2c(s1)-c1c(C)cccc1OC2
→ -12%, -22%
CN(CC(=O)Nc1ccccc1Br)C(=O)CCC1CCCC1
→ ?, -20%
COc1cccc(-c2cc(C(=O)N3CCOCC3)no2)c1
→ -3%, -2%
COc1ccc(NC(=O)CSc2nnc(NC(=O)NC3CCCCC3)s2)cc1OC
→ -15%, -9%
COc1ccc(OCC(N)=O)cc1
→ 0%, 3%
COc1ccccc1N1CCN(S(=O)(=O)c2ccc3c(c2)NC(=O)C(C)S3)CC1 (centres undefined)
→ -1%[7.34 µM], 0%[7.34 µM]
COc1cccc(CC(=O)Nc2ccc(F)c(S(=O)(=O)N3CCOCC3)c2)c1
→ -9%, -15%
O=C1NC(Cc2ccc(O)cc2)c2nc3ccc(F)cc3c(=O)n2-c2cc3ccccc3cc21 (centres undefined)
→ ?, ?
Cc1ccc(S(=O)(=O)N2CCCC(C(=O)NCCC(C)C)C2)cc1 (centres undefined)
→ -22%, -16%
COc1ccccc1N1CCN(C(=O)C2CCN(S(=O)(=O)c3cccc4nonc34)CC2)CC1
→ 9%, 0%
CCOc1ccccc1Nc1nc(-c2sc(NC(=O)c3cccc(Cl)c3)nc2C)cs1
→ ?, -5%

Entries of single compounds from above. Order of values: VACV mCherry inh	VACV Venus inh
CCOCCCN(Cc1ccco1)C(=O)c1cc2c(s1)-c1c(C)cccc1OC2 as listed: -12%	-22%
COc1ccccc1N1CCN(C(=O)C2CCN(S(=O)(=O)c3cccc4nonc34)CC2)CC1 as listed: 9%	0%
Cc1ccc(S(=O)(=O)N2CCCC(C(=O)NCCC(C)C)C2)cc1 (centres undefined) as listed: -22%	-16%
CN(CC(=O)Nc1ccccc1Br)C(=O)CCC1CCCC1 as listed: ?	-20%
COc1ccc(NC(=O)CSc2nnc(NC(=O)NC3CCCCC3)s2)cc1OC as listed: -15%	-9%

The listing continues:
Values run as follows: VACV mCherry inh, VACV Venus inh
Cc1ccccc1OCC(=O)NCCN1CCCC1
→ i, 0%
COc1ccc(Cl)c(-c2cc(C(=O)Nc3ccc(F)cc3)[nH]n2)c1
→ ?, ?
Cc1ccc(S(=O)(=O)CCc2nnc(N)s2)cc1
→ i, -12%
Cc1ccc(N=C2NC(=O)/C(=C/C=C/c3ccco3)S2)cc1C
→ ?, -12%
N#Cc1ccc(S(=O)(=O)N2CCCN(c3ccc(C(F)(F)F)cn3)CC2)cc1
→ -4%[7.34 µM], -5%[7.34 µM]
Cc1nc(Nc2nc3ccccc3o2)nc(C)c1C
→ 0%, -8%
Cc1ccc(C)c(NC(=O)Cn2c(=O)n(CCCS(=O)(=O)C3CCCCC3)c(=O)c3ccccc32)c1
→ -8%, -9%
COC(=O)c1sccc1S(=O)(=O)NCc1ccc(S(N)(=O)=O)cc1
→ -10%, -9%
CCN(CCNS(=O)(=O)c1ccc2[nH]c(=O)sc2c1)c1ccccc1
→ -5%, -15%
CC1C(=O)N(Cc2cn(Cc3ccco3)nn2)CCS(=O)(=O)N1Cc1ccc(-c2ccccc2C(F)(F)F)cc1 (centres undefined)
→ 4%, -23%
COc1cc(C(O)c2nc(-c3ccc(F)c(Cl)c3)cs2)ccc1F (centres undefined)
→ i, -27%
CN=C1SC(CC(=O)Nc2ccc(F)cc2F)C(=O)N1/N=C(\C)c1cccc(OCC(=O)O)c1 (centres undefined)
→ i, -19%
CC1([N+](=O)[O-])COP(=O)(Nc2ccc(F)cc2)OC1 (centres undefined)
→ i, -7%
S=c1nc2ccccc2c2nc(-c3cccnc3)[nH]n12
→ -9%, -5%
Cc1cc(NC(=O)C(C)C)cc(-c2nc3ncccc3o2)c1O
→ -11%, 1%
CCN(/C=N/c1sc2c(c1C#N)CC(C)(C)NC2(C)C)CC
→ -14%, -15%
CN(C)CCNc1ncnc2c1ncn2[C@H]1CN(Cc2ccc(Cl)cc2)C[C@@H](CO)O1
→ -12%, -1%
O=C(O)CSc1nc(-c2cccs2)cc(C(F)(F)F)n1
→ 6%, 6%
COCCNc1c(-c2cc3ccc(C)c(C)c3[nH]c2=O)nc2ccccn12
→ ?, -13%
CC(=O)c1ccc(NC(=O)CN2c3cccc4cccc(c34)S2(=O)=O)cc1
→ i, 12%
O=C(CSc1nc2ccccc2o1)NCCOc1ccccc1
→ -1%, -3%
COc1ccc(O)cc1CN1CCN(c2ncc(Cc3ccccc3)cn2)CC1
→ ?, -24%
c1ccc(-c2ncc(-c3ccn[nH]3)s2)cc1
→ -7%, -4%
COc1cc(OC)cc(C(=O)NC2CCN(CC(=O)Nc3cccc4ccccc34)CC2)c1
→ -14%[1.46 µM], ?
O=C(NCc1ccccc1Cl)c1ccc2ccccc2n1
→ -3%, -23%
COc1ccc(N2CCN(C(=O)c3cc4ccccc4o3)CC2)cc1
→ -2%, -3%
CCC(/C=C1\Sc2ccc(OC)cc2N1CCO)=C\c1sc2ccc(OC)cc2[n+]1CCO
→ 48%[activator], 24%
CC1CCCCN1CCCNC(=O)Cn1ncc2c3ccccc3n(C)c2c1=O (centres undefined)
→ -18%, -8%
Cc1ccc(N2CCN(S(=O)(=O)c3ccc(F)cc3)CC2)c(C)c1
→ -6%, 4%
CCN(CC)CCNC(=O)NC(=O)c1ccc(Cl)cc1
→ -7%, -4%

The listing continues:
Structure	VACV mCherry inh	VACV Venus inh
COc1ccc(CNC(=O)C2CCC(CNc3c(N4CCCCC4)c(=O)c3=O)CC2)cc1 (centres undefined)	i	-17%
Cc1cccc(OCC(O)Cn2c(-n3nc(C)cc3C)nc3c2c(=O)[nH]c(=O)n3C)c1 (centres undefined)	/	-23%
NC(=S)NN=C1c2cc(S(=O)(=O)N3CCOCC3)ccc2-c2ccc(S(=O)(=O)N3CCOCC3)cc21	-22%	-14%
Cc1oc2c(c1C(=O)Nc1ccc(OC(F)(F)F)cc1)C1=NCCN1C=N2	-13%	?
CC1C=CCC2C(=O)N(c3cccc(C(=O)Nc4ccc(F)cc4)c3)C(=O)C12 (centres undefined)	i	-10%
COc1ccc(-c2ccc(NS(=O)(=O)c3ccccc3)cc2)nn1	-2%	-10%
CCCCN1C(=O)C(CC(=O)NCCN2CCOCC2)CC(C(=O)N(C(C)C)C(C)C)=C1C (centres undefined)	-11%	-16%
O=S(Cc1ccc(Cl)cc1)c1ncc(CO)n1Cc1ccccc1 (centres undefined)	-25%	-19%
O=C(CCN1C(=O)C2C3C=CC(C4CC34)C2C1=O)OCC(=O)c1ccccc1 (centres undefined)	-1%	-9%
COc1ccc(S(=O)(=O)N2CCCCCC2)cc1C(=O)NCc1cccs1	-18%	-21%
CC1=NCC(C)c2c1[nH]c1ccccc21 (centres undefined)	-7%	5%
Cc1ccc(S(=O)(=O)c2c(N)n(/N=C/c3ccco3)c3nc4ccccc4nc23)cc1C	i	-10%
CC1CC(C)CN(S(=O)(=O)c2ccc(C(=O)N(c3ccccn3)C3CCCCC3)cc2)C1 (centres undefined)	i	-14%
COc1ccc(C(=O)Nc2ccccc2C(=O)Nc2ccccn2)cc1	i	-8%
C/C(CCS(=O)(=O)c1ccccc1)=N/O	-5%	-4%
CCN1Cc2c(cc(OC)c(OC)c2OC)-c2ccccc2S1(=O)=O	-9%	-11%
CC(NC(=O)c1cccc(Br)c1)c1ccccc1 (centres undefined)	i	-14%
COc1ccc(S(=O)(=O)N2CCC(C(=O)N3CCCCC3)CC2)cc1Cl	i	-22%
CCC(C)NS(=O)(=O)c1ccc(OCC(=O)Nc2ccc3c(c2)OCO3)cc1 (centres undefined)	-20%	-13%
O=C(N/N=C/c1ccco1)C(O)C(O)C(=O)N/N=C/c1ccco1 (centres undefined)	-1%	2%
CCOC(=O)N1CCN(c2cc(=O)n(C)c(=O)n2C)CC1	i[7.34 µM]	-9%[7.34 µM]
Oc1c(N=Nc2ccccn2)ccc2ccccc12	?	?
COc1ccccc1-c1nc(SCC(=O)c2ccc(Cl)cc2)n[nH]1	7%	-3%
Cc1ccc(-n2c(SCc3nc4ccccc4c(=O)[nH]3)nnc2-c2ccccc2O)cc1	-10%	-20%
O=C(CCCn1cc([N+](=O)[O-])cn1)NCc1ccccc1	-3%	-1%
O=C(c1cc2c(=O)n3ccccc3nc2s1)N1CCOCC1	-6%	-5%
O=C1c2cccc3cccc(c23)N1Cc1ccc(F)cc1	-5%	2%
COc1ccc(-c2cc(=NCCCCCC(=O)O)c3cc(C)ccc3o2)cc1	-9%&0%	14%&-8%
COC(=O)c1ccc(C(=O)OC)c(NC(=O)CN2CCN(c3ccc(OC)cc3)CC2)c1	i	-25%
COc1ccc(CCN2C(=O)NC(NC(=O)CCc3ccccc3)(C(F)(F)F)C2=O)cc1OC (centres undefined)	-6%	-21%
O=C(Nc1cccc2nsnc12)c1ccc2c(c1)OCO2	/	-9%
c1cncc(-c2nccc(-n3ccnc3)n2)c1	-5%	4%
CCOc1ccccc1N1CCN(C(=O)CNC(=O)c2ccccc2F)CC1	0%	14%
Cc1cc(C(=O)Nn2c(-c3ccncc3)nc3ccccc3c2=O)ccc1[N+](=O)[O-]	-4%	-24%
